Assay outcomes (PubChem BioAssay)
MITF inh – MITF inhibition. TRPM1 promoter luciferase, luminescence, 24 h. inhibition, % (test concentration not listed). 0.28% of 37,000 active. AID 2240;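 active = most replicates at 85% or more, or half of them and the mean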;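 note: human melanocyte line stably carrying TRPM1 promoter luciferase reporter; 0% = vehicle wells and 100% = a positive control; the first replicate is given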
PD-1 reverse act – reversal of PD-1 mediated T-cell inhibition; primary human CD4 T cells, PD-L1 beads, CellTiter-Glo 96 h; activation, % (concentration not given with the values); 29,000 tested, under 10 active; AID 2316;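 active = replicate mean of 50% or more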;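 note: 0% = median vehicle wells and 100% = positive control; 100 nL library stock added to about 50 µL; numbers are from one replicate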
Shh pathway inh – Sonic Hedgehog pathway inhibition. 2.1% of 22,000 active. Shh-LIGHT2 Gli-luciferase reporter, 30 h. AID 2313. inhibition, % (no concentration beside the values);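 active = replicate mean of 65% or more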;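 note: pathway switched on by Shh-conditioned medium diluted 1 in 25 in low serum; 100 nL library stock added to about 40 µL; 0% = median of neutral wells and 100% = positive control level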
YB-1 expression – YB-1 expression inhibition. U2OS, qRT-PCR YB-1 vs CDIP delta delta Cp, 16 h; active compounds read high; zero = DMSO, each unit about twofold. delta delta Cp (YB-1 minus CDIP) (no concentration beside the values). 0.37% of 30,000 active;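 active = delta delta Cp rounded down to an integer at or above 3, about 3 SD of DMSO wells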;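 note: higher means less YB-1 transcript or more CDIP transcript relative to DMSO; stock transfer was 100 nL into about 100 µL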
* marks the source's active call; other numbers are inactive results; / = not tested or not shown. Some of the compounds tested, so the mix of outcomes need not match the whole.

smiles | MITF inh | PD-1 reverse act | Shh pathway inh | YB-1 expression
COc1ccc(S(=O)(=O)N(C)C[C@@H]2Oc3ccc(NC(=O)Cc4cn(C)c5ccccc45)cc3CC(=O)N([C@@H](C)CO)C[C@@H]2C)cc1 | 18 | / | 37 | -0.00057
C[C@@H]1CN([C@@H](C)CO)C(=O)c2cccc(NC(=O)C3CCOCC3)c2O[C@H]1CN(C)S(=O)(=O)c1ccc(Cl)cc1 | -14 | 0.7 | -11 | -0.11
CCN1/C(=C2\C(=O)N(C)C(=S)N2c2ccccc2)C=Cc2ccccc21 | -12 | 0.8 | -10 | 0.17
C[C@H](CO)N1C[C@H](C)[C@@H](CN(C)C(=O)NC2CCCCC2)Oc2ccc(NC(=O)CCN3CCOCC3)cc2C1=O | -13 | -0.1 | -10 | 0.26
N#Cc1cc2c(nc1SCC(=O)Nc1cc(C(F)(F)F)ccc1Cl)CCCCC2 | 18 | 1.6 | / | /
c1ccc(-n2c(SCc3nc4ccccc4s3)nnc2-c2ccncc2)cc1 | 45 | -1.9 | / | /
COc1ccc(S(=O)(=O)N(C)C[C@H]2Oc3ccc(NC(=O)Nc4ccc(F)cc4)cc3CC(=O)N([C@H](C)CO)C[C@H]2C)cc1 | 11 | 1.5 | 11 | -0.35
COc1ccc(NC(=O)Nc2ccc3c(c2)C(=O)N([C@H](C)CO)C[C@H](C)[C@@H](CN(C)C(=O)NC(C)C)O3)cc1 | -5 | 2.0 | -13 | -0.28
C[C@@H]1CN([C@H](C)CO)C(=O)c2cccc(NC(=O)Nc3ccc(C(F)(F)F)cc3)c2O[C@H]1CN(C)Cc1ccc(C(F)(F)F)cc1 | 44 | -5.1 | -9 | -0.59
CC1CC(=O)C2=C(C1)C1OC1C1(O)C2C(=O)c2cccc(O)c2C1O (stereo not given) | / | / | -9 | 0.51

One compound at a time, from the list above.
CCN1/C(=C2\C(=O)N(C)C(=S)N2c2ccccc2)C=Cc2ccccc21 across the screens: MITF inh: -12; PD-1 reverse act: 0.8; Shh pathway inh: -10; YB-1 expression: 0.17
COc1ccc(S(=O)(=O)N(C)C[C@H]2Oc3ccc(NC(=O)Nc4ccc(F)cc4)cc3CC(=O)N([C@H](C)CO)C[C@H]2C)cc1 across the screens: MITF inh: 11; PD-1 reverse act: 1.5; Shh pathway inh: 11; YB-1 expression: -0.35

Other entries
smiles | MITF inh | PD-1 reverse act | Shh pathway inh | YB-1 expression
CCOC(=O)c1c(-c2ccccc2)csc1NC(=O)Cn1cnc2ccccc2c1=O | 15 | 1.0 | / | /
C[C@@H]1CN([C@H](C)CO)C(=O)c2cc(NC(=O)Cn3cnnn3)ccc2O[C@H]1CN(C)CC1CCCCC1 | -6 | 2.6 | / | -0.041
C[C@H](CO)N1C[C@H](C)[C@@H](CN(C)Cc2ccc(Oc3ccccc3)cc2)Oc2c(NC(=O)c3nc4ccccc4s3)cccc2C1=O | 16 | -2.4 | -15 | 1.4
CC(=O)Nc1ccc(S(=O)(=O)Nc2ccc([N+](=O)[O-])cc2)cc1 | -24 | / | 22 | -0.11
C[C@@H]1Cc2c(O)c(O)cc(O)c2C(=O)O1 | 0 | -4.4 | -28 | 0.7
O=C(O)C1C2C=CC(O2)C1C(=O)Nc1ccc(Oc2ccc(Cl)cc2)cc1 (stereo not given) | 20 | -6.5 | / | /
CC(C)NC(=O)Nc1ccc2c(c1)CC(=O)N([C@H](C)CO)C[C@H](C)[C@H](CN(C)Cc1ccc(C(=O)Nc3ccccc3N)cc1)O2 | 24 | -0.6 | / | 0.33
C[C@@H]1CCCCO[C@@H](CN(C)S(=O)(=O)c2cn(C)cn2)[C@@H](C)CN([C@H](C)CO)C(=O)c2cc(NC(=O)CCC(F)(F)F)ccc2O1 | -15 | 0.8 | / | -0.19
C[C@H](CO)N1C[C@H](C)[C@H](CN(C)Cc2ccncc2)Oc2c(NC(=O)C3CCCCC3)cccc2C1=O | -3 | 0.3 | 5 | 0.084
COc1ccc(NC(=O)Nc2ccc3c(c2)C(=O)N([C@@H](C)CO)C[C@@H](C)[C@H](CN(C)Cc2ccccc2)O3)cc1 | 2 | 1.2 | 0 | 0.2

Later entries:
smiles | MITF inh | PD-1 reverse act | Shh pathway inh | YB-1 expression
COc1ccc(OC)c(S(=O)(=O)N(C)CC(=O)N2CCN(c3ccc(F)cc3)CC2)c1 | -2 | 0.8 | / | /
CSc1nc(CSc2ccc(Cl)cc2)nc(C2CC2)c1C#N | 2 | -4.8 | 22 | 0.26
NC(=O)N/N=C/c1ccc([N+](=O)[O-])o1 | -2 | / | 5 | 0.24
Cc1ccc(S(=O)(=O)N(C)C[C@@H]2Oc3ccc(NS(=O)(=O)c4ccccc4)cc3CC(=O)N([C@H](C)CO)C[C@H]2C)cc1 | -6 | 0.0 | -10 | 0.33
CC1CCc2c(sc3ncnc(SCC(=O)NC4CCCCC4)c23)C1 (stereo not given) | 1 | -1.0 | / | /
NS(=O)(=O)c1ccc(CCNC(=O)c2cccnc2)cc1 | 3 | 4.7 | / | /
C[C@@H]1CCCCO[C@H](CN(C)S(=O)(=O)c2ccc(F)cc2)[C@@H](C)CN([C@H](C)CO)C(=O)c2cc(NC(=O)Cc3ccccc3)ccc2O1 | 15 | / | 7 | 0.0099
CC(C)=CCc1c(O)cc(O)c2c(=O)cc(-c3ccc(O)cc3)oc12 | 18 | -2.1 | 42 | -0.9
CNC[C@H]1Oc2c(NS(=O)(=O)c3cn(C)cn3)cccc2C(=O)N([C@H](C)CO)C[C@@H]1C | 0 | 0.1 | 14 | -0.17
COc1ccc(CNC(=O)c2c(C)oc3c2cc(OC(C)=O)c2ccccc23)cc1 | -4 | -0.3 | -2 | -0.34

Copied from the list:
CNC[C@H]1Oc2c(NS(=O)(=O)c3cn(C)cn3)cccc2C(=O)N([C@H](C)CO)C[C@@H]1C – YB-1 expression: -0.17
CC1CCc2c(sc3ncnc(SCC(=O)NC4CCCCC4)c23)C1 (stereo not given) – MITF inh: 1
CC(C)=CCc1c(O)cc(O)c2c(=O)cc(-c3ccc(O)cc3)oc12 – Shh pathway inh: 42
CSc1nc(CSc2ccc(Cl)cc2)nc(C2CC2)c1C#N – YB-1 expression: 0.26
COc1ccc(CNC(=O)c2c(C)oc3c2cc(OC(C)=O)c2ccccc23)cc1 – Shh pathway inh: -2

Following part.
smiles | MITF inh | PD-1 reverse act | Shh pathway inh | YB-1 expression
Cc1ccc(S(=O)(=O)N(C)C[C@@H]2Oc3ccc(NC(=O)Nc4c(C)noc4C)cc3C(=O)N([C@H](C)CO)C[C@@H]2C)cc1 | 2 | 1.0 | / | 0.3
C[C@H](CO)N1C[C@H](C)[C@@H](CN(C)S(C)(=O)=O)Oc2c(NC(=O)CCCCCC(=O)Nc3ccccc3N)cccc2C1=O | -13 | 1.7 | / | 0.26
C[C@H](CO)N1C[C@H](C)[C@H](CN(C)C(=O)NC2CCCCC2)Oc2ccc(NC(=O)Nc3ccc(C(F)(F)F)cc3)cc2CC1=O | -9 | -2.2 | 9 | 0.086
C[C@@H]1CN([C@H](C)CO)C(=O)Cc2cc(NS(=O)(=O)c3cn(C)cn3)ccc2O[C@@H]1CN(C)S(=O)(=O)c1cn(C)cn1 | 2 | 2.9 | -27 | -0.1
Cc1ccc(S(=O)(=O)Nc2cccc3c2O[C@@H](CN(C)Cc2ccc(C(=O)Nc4ccccc4N)cc2)[C@@H](C)CN([C@H](C)CO)C3=O)cc1 | 30 | -0.3 | / | -0.1
C[C@H](CO)N1C[C@H](C)[C@H](CN(C)C(=O)Nc2ccc(F)cc2)Oc2c(NS(=O)(=O)c3ccc(F)cc3)cccc2C1=O | 13 | -1.9 | -2 | 0.26
C[C@H]1CN([C@@H](C)CO)C(=O)c2cccc(NC(=O)Nc3cccc4ccccc34)c2O[C@H]1CN(C)S(C)(=O)=O | -3 | -0.5 | 9 | 0.16
C[C@@H]1CCCCO[C@@H](CN(C)C(=O)Nc2ccc(C(F)(F)F)cc2)[C@@H](C)CN([C@H](C)CO)C(=O)c2cc(NS(=O)(=O)c3cn(C)cn3)ccc2O1 | -34 | / | -9 | 0.55
CN(C(Cc1ccc(OS(=O)(=O)c2cccc3cnccc23)cc1)C(=O)N1CCN(c2ccccc2)CC1)S(=O)(=O)c1cccc2cnccc12 (stereo not given) | 43 | / | 2 | -0.48
COc1ccc(C2C(C(=O)Nc3ccccc3)=C(C)Nc3ncnn32)cc1O (stereo not given) | -5 | 2.7 | / | /

Next compounds follow:
smiles | MITF inh | PD-1 reverse act | Shh pathway inh | YB-1 expression
C[C@@H]1CN([C@H](C)CO)C(=O)c2cc(NC(=O)C3CCCCC3)ccc2O[C@H]1CN(C)Cc1ccc(Cl)c(Cl)c1 | 7 | 0.7 | 5 | -0.26
Cc1noc(C)c1NC(=O)Nc1ccc2c(c1)C(=O)N([C@H](C)CO)C[C@@H](C)[C@H](CN(C)Cc1ccc3c(c1)OCO3)O2 | -4 | 1.2 | / | -0.02
C=C(COC(C)=O)[C@@H]1Cc2cc(C(C)=O)ccc2O1 | -14 | 0.0 | -58 | -0.36
C[C@@H]1CN([C@H](C)CO)C(=O)c2cccc(NC(=O)Nc3ccccc3)c2O[C@H]1CN(C)S(=O)(=O)c1cn(C)cn1 | -5 | -0.2 | -2 | -0.22
C[C@H](CO)N1C[C@H](C)[C@@H](CN(C)S(=O)(=O)c2ccc(Cl)cc2)Oc2ccc(NC(=O)C3CCCCC3)cc2C1=O | 3 | 1.1 | / | 0.58
C[C@@H]1CN([C@@H](C)CO)C(=O)c2cc(NC(=O)CCN3CCOCC3)ccc2O[C@@H]1CN(C)C(=O)Nc1ccc(F)cc1 | -4 | / | / | -0.04
C=CCN1CCc2c(cc(O)c(O)c2Br)[C@@H](c2ccccc2)C1 | 31 | / | 31 | -0.26
CC(C)NC(=O)N(C)C[C@H]1Oc2c(NC(=O)C3CC3)cccc2C(=O)N([C@@H](C)CO)C[C@@H]1C | 3 | 1.2 | -8 | 0.15
CNc1[nH]c(=S)nc2sc3c(c12)CCCC3 | -34 | 0.4 | -20 | 0.038
C[C@@H]1CN([C@H](C)CO)C(=O)c2cccc(NC(=O)c3ccc(-c4nccs4)cc3)c2O[C@H]1CN(C)S(=O)(=O)c1ccc(F)cc1 | 2 | 0.5 | 16 | 0.26

(further entries)
The line under a structure holds: MITF inh	PD-1 reverse act	Shh pathway inh	YB-1 expression
C[C@H]1CN([C@@H](C)CO)C(=O)c2cc(NC(=O)Cn3cnnn3)ccc2O[C@H]1CN(C)C(=O)Nc1ccc(F)cc1
→ -5	1.4	/	-0.31
C[C@@H]1CCCCO[C@H](CN(C)C(=O)Cc2ccccc2)[C@@H](C)CN([C@H](C)CO)C(=O)c2cc(NC(=O)CCC(F)(F)F)ccc2O1
→ -2	-0.9	/	-0.22
C[C@@H]1CN([C@H](C)CO)C(=O)c2cccc(NC(=O)Nc3ccc4c(c3)OCO4)c2O[C@H]1CN(C)Cc1ccc(Cl)c(Cl)c1
→ 12	-3.6	-4	0.074
C[C@H](CO)N1C[C@H](C)[C@H](CN(C)Cc2ccc(Cl)c(Cl)c2)Oc2ccc(NC(=O)C3CCCCC3)cc2C1=O
→ 29	-2.2	/	-0.35
C[C@@H]1CN([C@@H](C)CO)C(=O)c2cc(NC(=O)Nc3ccc(F)cc3)ccc2O[C@H]1CN(C)Cc1ccc(C(=O)O)cc1
→ -1	/	/	-0.32
CC(C)N1CN=C(Nc2nc3ccccc3o2)NC1
→ -36	0.5	-41	-0.1
C[C@H](CO)N1C[C@H](C)[C@H](CN(C)Cc2ccncc2)Oc2ccc(NC(=O)CCCCCC(=O)Nc3ccccc3N)cc2C1=O
→ 1	0.5	/	0.16
Cc1noc(C)c1NC(=O)Nc1cccc2c1O[C@@H](CN(C)Cc1ccc3c(c1)OCO3)[C@@H](C)CN([C@@H](C)CO)C2=O
→ -3	1.3	-38	-0.18
C[C@@H]1CN([C@@H](C)CO)C(=O)c2cc(NC(=O)c3ccncc3)ccc2O[C@@H]1CN(C)S(=O)(=O)c1ccc(Cl)cc1
→ -5	0.3	-16	-0.035
CCOC(=O)c1c(NC(=S)Nc2ccsc2C(=O)OC)sc(C)c1-c1ccccc1
→ 19	3.2	/	/
C[C@H]1CN([C@@H](C)CO)C(=O)Cc2cc(NS(=O)(=O)c3ccc(F)cc3)ccc2O[C@H]1CN(C)C
→ -12	2.4	-43	-13
C[C@H](CO)N1C[C@H](C)[C@H](CN(C)Cc2ccc3c(c2)OCO3)Oc2ccc(NC(=O)Nc3cccc4ccccc34)cc2CC1=O
→ 2	1.4	7	-0.18
CCc1nc(SCC(=O)Nc2ccc([N+](=O)[O-])cc2)n[nH]1
→ -16	2.5	/	/
COc1ccc(NC(=O)N(C)C[C@@H]2Oc3c(NC(=O)C4CC4)cccc3C(=O)N([C@@H](C)CO)C[C@H]2C)cc1
→ -11	0.7	-23	0.32
C[C@@H]1CN([C@@H](C)CO)C(=O)c2cccc(NC(=O)CCCCCC(=O)Nc3ccccc3N)c2O[C@@H]1CN(C)Cc1ccc2c(c1)OCO2
→ 17	-1.3	/	0.0043
CCN(CC(=O)Nc1cccc([N+](=O)[O-])c1C)S(=O)(=O)c1ccc(Br)cc1
→ 3	-1.0	/	/
C[C@H]1CN([C@@H](C)CO)C(=O)c2cc(NC(=O)Cc3ccccc3)ccc2O[C@H]1CN(C)Cc1ccc(-c2ccccc2)cc1
→ 17	-2.1	/	0.33
